Screens as filed in PubChem BioAssay.
AID504770 = growth inhibitors of E. coli YBA685 in a screen for V. cholerae RctB (chromosome II replication) inhibitors | z-score (concentration not given with the values) | AID 504770 | hit rate 0.27% among 130,000 | E. coli YBA685 rctB-dependent plasmid, OD600 growth, 3 h; active compounds read low;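 active = z-score under -2 on both plates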;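 note: wells of about 30 µL received 100 nL stock; score is relative to mean and SD of the test wells; the first replicate is given; strong numbers were not always called active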
Ba CapD inh = inhibitors of Bacillus anthracis CapD enzyme. z-score (concentration not given with the values). purified CapD enzyme, fluorescence intensity read-out; active compounds read low; some hits fall short of the stated cut. hit rate 0.23% among 140,000;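 active = z-score under -4 in either of two replicates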;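 note: stock transfer was 100 nL into about 40 µL; score is relative to mean and spread of the plate; one replicate is shown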
The depositor's hits bear a star; nt = no result given. Some of the compounds tested (hit frequency here may not be typical).

> COc1ccc(S(=O)(=O)Nc2cc(C(=O)N3CCCCCC3)ccc2N2CC3CC(C2)c2cccc(=O)n2C3)cc1 (stereo not given)
  AID504770 = nt
  Ba CapD inh = 0.38

> CCCNC(=O)NCC1CCN(Cc2ccccc2)CC1
  AID504770 = 0.05
  Ba CapD inh = nt

> CCc1cc(C(=O)c2ccc(OC)cc2)c(NC(=O)CC(C)(C)CC(=O)O)s1
  AID504770 = -0.8
  Ba CapD inh = 0.29

> CCCC(=O)C1CCN(C(=O)c2ccc(C(C)(C)C)cc2)CC1
  AID504770 = -1
  Ba CapD inh = 0.49

> N#Cc1c(N)n(-c2cccc(C(F)(F)F)c2)c2nc3ccccc3nc12
  AID504770 = -0.3
  Ba CapD inh = 94

> O=C(Nc1ccc(OC(F)(F)F)cc1)c1ccccn1
  AID504770 = -0.45
  Ba CapD inh = nt

> O=C(Cn1nnc(-c2ccc(C(F)(F)F)cc2)n1)Sc1ccc(F)cc1F
  AID504770 = 4.2
  Ba CapD inh = -1

> COc1ccc(OC)c(NC(=O)c2ccc3snnc3c2)c1
  AID504770 = 0.55
  Ba CapD inh = 0.47

> Clc1ccc(-n2cc(-c3ccccc3)c3c(NCCCN4CCOCC4)ncnc32)cc1
  AID504770 = -0.7
  Ba CapD inh = -0.56

> COc1ccc(Nc2cc(N3CCCC3)ncn2)cc1
  AID504770 = -0.6
  Ba CapD inh = 0.01

Reprinted from the part before: two entries, then new ones.
> Clc1ccc(-n2cc(-c3ccccc3)c3c(NCCCN4CCOCC4)ncnc32)cc1
  AID504770 = -0.7
  Ba CapD inh = -0.56

> COc1ccc(Nc2cc(N3CCCC3)ncn2)cc1
  AID504770 = -0.6
  Ba CapD inh = 0.01

> CCOC(=O)c1c(C)csc1NC(=O)CSCC(=O)O
  AID504770 = -0.15
  Ba CapD inh = 0.67

> O=C(Nc1ccc2c(c1)C(=O)OC2)c1cc2ccccc2s1
  AID504770 = -0.7
  Ba CapD inh = 7.1

> O=C(OCc1ccc([N+](=O)[O-])cc1)C1CCCN1C(=O)OCc1cccc2ccccc12 (stereo not given)
  AID504770 = nt
  Ba CapD inh = -1.1

> O=C(NC(=S)Nc1ccc(-n2nncc2-c2ccco2)cc1)C12CC3CC(CC(C3)C1)C2
  AID504770 = 1.1
  Ba CapD inh = -0.17

> COc1ccc(Cl)cc1NC(=O)CN1C(=O)CSc2ncccc21
  AID504770 = 1.6
  Ba CapD inh = 0.45

> CC/C(C)=C(\C#N)c1nc2ccccc2[nH]1
  AID504770 = -0.15
  Ba CapD inh = nt

> CCn1c2ccccc2c2cc(CN3CCC(NC(=O)OCc4cc(C(C)=O)ccc4OC)C3)ccc21 (stereo not given)
  AID504770 = nt
  Ba CapD inh = 6

> Cc1nnc2n1CCCCC2
  AID504770 = -3.4
  Ba CapD inh = nt

> COC1=CC(=O)c2ccccc2C1=O
  AID504770 = -2.6*
  Ba CapD inh = 0.21

> CCOC(=O)C1CCN(C(=O)c2coc3ccccc3c2=O)CC1
  AID504770 = -0.8
  Ba CapD inh = nt

In the list so far, 6 have four or more nitrogen atoms:
> COc1ccc(S(=O)(=O)Nc2cc(C(=O)N3CCCCCC3)ccc2N2CC3CC(C2)c2cccc(=O)n2C3)cc1 (stereo not given)
  AID504770 = nt
  Ba CapD inh = 0.38

> N#Cc1c(N)n(-c2cccc(C(F)(F)F)c2)c2nc3ccccc3nc12
  AID504770 = -0.3
  Ba CapD inh = 94

> O=C(Cn1nnc(-c2ccc(C(F)(F)F)cc2)n1)Sc1ccc(F)cc1F
  AID504770 = 4.2
  Ba CapD inh = -1

> Clc1ccc(-n2cc(-c3ccccc3)c3c(NCCCN4CCOCC4)ncnc32)cc1
  AID504770 = -0.7
  Ba CapD inh = -0.56

> COc1ccc(Nc2cc(N3CCCC3)ncn2)cc1
  AID504770 = -0.6
  Ba CapD inh = 0.01

> O=C(NC(=S)Nc1ccc(-n2nncc2-c2ccco2)cc1)C12CC3CC(CC(C3)C1)C2
  AID504770 = 1.1
  Ba CapD inh = -0.17

More compounds follow.
> CC(NC(=O)CSc1nc2sc3c(c2c(=O)n1C)CCCC3)c1ccccc1 (stereo not given)
  AID504770 = nt
  Ba CapD inh = -0.14

> Cc1ccc(-c2nc3sccn3c2Nc2ccccc2)cc1
  AID504770 = -0.15
  Ba CapD inh = -0.09

> Cc1ccc(C(=O)NC(=S)Nc2ccc(NC(=O)c3ccco3)cc2)cc1C
  AID504770 = 0.5
  Ba CapD inh = -0.34

> O=C(N/N=C/c1cccc2c1OCO2)c1c(F)cccc1F
  AID504770 = nt
  Ba CapD inh = 16
